Vif A3G: inhibitors of Vif binding to APOBEC3G peptide, primary screen, biochemical, TR-FRET, GST-Vif 1-94, biotin-A3G peptide, dose response retest (AID 1117319); TR-FRET GST-Vif / biotin-A3G peptide binding; higher % means a stronger effect; test concentration not given here; strong numbers were not always called active; inhibition, %, or IC50 in µM where a hit was titrated; hit rate 0.57% among 260,000;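 active = above the screen mean plus three standard deviations and confirmed in dose response; inconclusive = results disagree or hit not tested in dose response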;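 also: Vif residues 1-94 fused to GST binding biotinylated APOBEC3G peptide 110-148; 0% = full assay without inhibitor and 100% = GST in place of GST-Vif; retest series ran down from 100 µM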
ALR inh: blocks human ALR sulfhydryl oxidase activity. P55789. purified ALR, DTT oxidation, H2O2 HRP-luminol luminescence. inhibition, % (no concentration beside the values). hit rate 3.8% among 290,000. AID 485317;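 active = mean and each replicate at 75% or more; inconclusive = only one of the two met; inactive = neither met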;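 also: stock transfer was 7.5 nL into about 7.5 µL; 0% = neutral wells and 100% = wells with inactivated enzyme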
HNF4A DNA FP: change in binding of human HNF4 alpha to DNA. HNF4a-FITC DNA binding, fluorescence polarization, 1 h. activity change, % at 10 µM. hit rate 0.3% among 360,000. P41235. AID 1224865; in the data active = activity change above about 30%, passing the limit was not always enough;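 also: controls were the assay level and a saturating level of protein; the project sought stronger binding though the title names inhibitors; some compounds called inactive have numbers as strong as hits; positive values seem to mean higher polarization but the record does not say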
LANA-H2A inh: blocks KSHV LANA binding to histone H2A/H2B. Q9QR71. cell-free LANA-H2A/H2B peptide, fluorescence polarization. inhibition, % (concentration not given with the values). hit rate 0.6% among 320,000; in the data active = inhibition mostly above about 10%, no sharp cut-off; inactive = mostly below about 6.7%;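 also: stock transfer was 7.5 nL into about 10 µL; 0% = median of vehicle wells and 100% = median of positive control wells; one replicate is shown; the record names a cut of 25% in any replicate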
Target sequence (Q9QR71 whole entry, looked up): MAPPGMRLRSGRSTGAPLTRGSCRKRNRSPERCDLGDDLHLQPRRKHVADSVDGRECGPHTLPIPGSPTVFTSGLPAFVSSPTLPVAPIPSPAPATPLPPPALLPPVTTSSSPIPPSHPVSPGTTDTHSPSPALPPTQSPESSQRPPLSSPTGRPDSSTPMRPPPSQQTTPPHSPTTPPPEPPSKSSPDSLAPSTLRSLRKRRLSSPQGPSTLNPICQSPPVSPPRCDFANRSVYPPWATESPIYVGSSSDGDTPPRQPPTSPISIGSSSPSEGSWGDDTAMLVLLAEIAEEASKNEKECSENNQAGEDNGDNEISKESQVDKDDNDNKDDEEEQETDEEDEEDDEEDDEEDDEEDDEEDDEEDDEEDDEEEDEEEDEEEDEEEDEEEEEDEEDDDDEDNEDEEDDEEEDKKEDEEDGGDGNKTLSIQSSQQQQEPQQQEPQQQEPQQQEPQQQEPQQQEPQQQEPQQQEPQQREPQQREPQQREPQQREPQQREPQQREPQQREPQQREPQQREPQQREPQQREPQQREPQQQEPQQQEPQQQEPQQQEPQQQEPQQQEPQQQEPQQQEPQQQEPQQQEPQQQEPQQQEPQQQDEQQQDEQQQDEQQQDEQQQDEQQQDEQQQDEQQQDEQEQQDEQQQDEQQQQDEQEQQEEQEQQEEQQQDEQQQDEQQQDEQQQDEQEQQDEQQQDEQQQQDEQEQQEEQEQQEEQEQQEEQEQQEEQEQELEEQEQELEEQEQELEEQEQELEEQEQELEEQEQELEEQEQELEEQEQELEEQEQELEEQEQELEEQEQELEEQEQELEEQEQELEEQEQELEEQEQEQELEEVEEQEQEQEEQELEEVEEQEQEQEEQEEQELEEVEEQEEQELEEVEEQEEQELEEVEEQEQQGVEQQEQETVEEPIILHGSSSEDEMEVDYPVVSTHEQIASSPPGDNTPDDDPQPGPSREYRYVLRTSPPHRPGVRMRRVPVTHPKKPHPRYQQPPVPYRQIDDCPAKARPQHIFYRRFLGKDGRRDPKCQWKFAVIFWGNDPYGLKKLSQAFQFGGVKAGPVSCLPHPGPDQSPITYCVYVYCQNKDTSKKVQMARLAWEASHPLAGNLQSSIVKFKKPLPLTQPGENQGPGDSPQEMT
RanGTP-Imp inh: disruptors of Ran-importin-beta complex formation – biochemical, FRET, CFP-Ran, YFP-importin-beta, homogeneous, primary screen | cell-free CFP-Ran/YFP-importin-beta FRET ratio | inhibition, % (no concentration beside the values) | hit rate 1.1% among 300,000 | AID 2216;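 active = most replicates above 15%; inconclusive = exactly half above 15%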;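 also: 0% = DMSO wells and 100% = Ran loaded with GDP instead of GTP; wells of about 40 µL received 100 nL stock; the first replicate is given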
Calb FLC: C. albicans growth modulation with fluconazole; C. albicans CaCi-2 (fluconazole-resistant clinical isolate) + fluconazole, Alamar Blue growth, 48 h; growth inhibition, % (concentration not given with the values); hit rate 0.57% among 300,000;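 active = most replicates above 75%; inconclusive = exactly half above 75%; inactive = most below 75%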;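 also: all wells also contain fluconazole at 8 µg/ml as a sub-toxic cotreatment; 0% = median of DMSO wells and 100% = median of geldanamycin control wells; wells of about 8 µL received 7.5 nL stock; the first replicate is given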
Beta2AR agonist: activates human beta-2 adrenergic receptor causing internalization. P07550. Am2.2-beta2AR cells, FAP receptor internalization, flow cytometry; reference of the scale not given here. response, % (test concentration not listed). hit rate 0.43% among 340,000;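 active = response above a set limit, near 3 SD of response in nonfluorescent compounds, cut at about 42% in these data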;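 also: stock transfer was 100 nL into about 11 µL; a reference agonist was the positive control; negative values mostly stem from fluorescent compounds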
Starred values were filed as active, the others as inactive; ? = inconclusive; / = no result given. No enrichment for hits. Share with any hit: about 6.3%.

SMILES	Vif A3G	ALR inh	HNF4A DNA FP	LANA-H2A inh	RanGTP-Imp inh	Calb FLC	Beta2AR agonist
Cc1cccnc1NC(=O)Nc1cccs1	5.0%	-1.5	0.3	0.4	0.5	-2.1	-9.7
O=C(Nc1nc(-c2cc(F)ccc2F)cs1)c1cccc(N2C(=O)CCC2=O)c1	-2.5%	/	-1.4	/	1.6	0.2	6.8
COc1ccc(/C=N/NC(=O)CN(Cc2ccccc2)S(=O)(=O)c2ccc3c(c2)OCCO3)cc1	4.5%	-3.8	-5.4	-8.1	0.8	0.8	-0.6
O=C1c2[nH]nc(-c3ccccc3O)c2C(c2cccc(Cl)c2)N1Cc1ccco1 (centres undefined)	2.0%	-3.6	5.7	-4.7	-2.0	-6.5	15.9
CC(C)CN1C(=O)C(=O)N(CC(=O)NC(C)CCc2ccccc2)C1=O (centres undefined)	-5.9%	/	-3.5	/	/	/	-8.2
COc1cccc(/C=C2\SC(=S)N(c3cccnc3)C2=O)c1OC	-3.1%	4.5	2.2	-0.1	-1.8	13.2	-10.8
Cc1cc(C)c(NC(=O)CN2C(=O)NC(CCc3ccccc3)C2=O)c(C)c1 (centres undefined)	8.4%	1.4	1.1	10.2	-7.1	-10.0	15.4
COCCn1c(N2CCN(c3ccc(OC)cc3)CC2)nc2c1c(=O)n(C)c(=O)n2C	?	42.5	0.0	7.6	-3.2	-18.8	-1.5
COc1ccc(C(CNC(=O)c2ccc(NS(=O)(=O)c3ccc(F)c(C)c3)cc2)N2CCOCC2)cc1 (centres undefined)	2.9%	-0.3	1.8	1.6	0.5	-4.5	6.5
CC(=O)Nc1ccc(N(CC(=O)NCC2CCCO2)C(=O)CCC(=O)Nc2cc(C)on2)cc1 (centres undefined)	/	2.1	1.7	-0.9	2.6	18.1	-1.1
COc1ccc(C(=O)COC(=O)CCN=C2NS(=O)(=O)c3ccccc32)cc1OC	12.1%	-22.4	0.0	-3.6	0.2	-8.9	-7.5
CCC(=O)N1CCc2cc(S(=O)(=O)NC(Cc3ccccc3)C(=O)O)ccc21 (centres undefined)	/	-3.8	0.6	-0.4	22.6	-4.9	-5.1
Cc1nc2cc(C(F)(F)F)ccc2n1C1CCN(C(=O)N2CCOCC2)CC1	-1.8%	/	2.4	-0.2	5.1	-7.7	-11.2
O=C(OCC(=O)N1CCN(c2ccccc2)CC1)c1ccc(O)cc1O	/	-3.8	0.3	-3.1	2.0	-3.7	10.9
COc1cc(NC(=O)c2cccs2)c(OC)cc1NC(=O)CCC(=O)Nc1ccc2ncccc2c1	8.7%	/	0.5	/	2.2	-6.3	7.4
C=CCN(c1cccc(C(F)(F)F)c1)S(=O)(=O)c1cccc(C(=O)OCC(=O)NC(N)=O)c1	-1.0%	-12.8	1.0	-3.4	2.3	21.4	3.1
O=C(Nc1ccc2nc3n(c(=O)c2c1)CCCC3)c1cncc(Br)c1	/	-1.7	3.7	-1.1	0.6	-5.3	-26.0
COc1ccc(NC2CCCN(C(=O)c3cn(C)c4ccccc34)C2)cc1 (centres undefined)	/	99.3*	-0.7	2.8	-2.0	-12.5	-0.9
O=C(CSc1cn(CCNC(=O)c2ccccc2)c2ccccc12)NCc1ccco1	12.1%	30.9	2.3	6.2	-1.7	-3.5	-0.5
CC(=O)Oc1ccccc1C1C[C@]2(C)CC(=O)NC2N1C(C)=O (some centres undefined)	0.6%	13.7	2.3	-3.0	-2.5	-6.8	-1.5
CCNC(=S)N1CCC(C(O)(c2ccccc2)c2ccccc2)CC1	?	-0.1	6.7	-1.3	?	35.6	-4.0
CCOc1ccc(C(=O)Nc2cccc(C)n2)cc1	16.6%	-2.6	2.2	-7.0	1.6	-10.4	-8.2
Cc1cccc(-c2cc(C(=O)Nc3c(C)n(C)n(-c4ccccc4)c3=O)c3ccccc3n2)c1	6.8%	17.9	-1.9	-4.7	0.0	-4.6	5.4
Cc1nc(-c2ccc(F)cc2)c(CC(=O)N2CCN(S(=O)(=O)c3ccc(F)cc3)CC2)s1	-8.2%	-11.8	5.2	3.5	9.0	3.5	-2.4
Cc1ccc2c(Cl)c(C(=O)NCCCn3ccnc3)sc2c1	11.0%	2.4	1.1	3.4	?	11.2	-6.8
OCCN1CCOCCN(CCO)CCN(CCO)CC1	?	-1.7	1.1	8.2	-0.7	-5.4	-2.0
O=S(=O)(NCc1csc(-c2cccs2)n1)c1cccs1	-9.5%	-7.3	-1.8	-0.7	0.2	-21.5	-7.4
COc1ccc(-n2c(SCC(=O)Nc3cc(C)on3)nc3c(c2=O)SCC3)cc1	-3.1%	3.8	-3.0	0.3	1.1	-3.6	9.6
Cc1ccc(C(=O)O)cc1-c1ccc(C=C2C(=O)c3ccccc3C2=O)o1	/	22.4	-11.1	-2.8	-1.4	-5.6	7.3
COC(=O)c1ccccc1NC(=O)c1ccc(-c2cccc(Cl)c2)o1	-9.9%	-1.1	-1.0	-2.2	2.7	0.8	-1.3
O=C(c1cnn2cccnc12)N1CCN(Cc2ccc3c(c2)OCO3)CC1	>100µM*	0.7	3.1	5.8	4.3	-10.4	-2.8
O=[N+]([O-])c1cccc(S(=O)(=O)Nc2ccc3cn[nH]c3c2)c1	/	54.7	12.7	4.3	/	/	11.3
CC(=O)N1CCN(C(=O)c2ccc(NS(=O)(=O)c3ccc(Cl)c(Cl)c3)cc2)CC1	-2.6%	/	-0.3	/	/	/	-4.0
O=C(c1ccco1)N1CCN(C(=O)c2cc3c(s2)-c2ccccc2OC3)CC1	9.9%	-10.3	-0.8	-1.7	0.5	7.4	-5.4
Cc1ccc(N(C)S(=O)(=O)c2nnc(NC(=O)c3ccco3)s2)cc1	-3.1%	-9.4	1.6	-4.8	9.3	4.8	3.9
O=C(CSCc1ccccc1)Nc1ccccc1	-7.2%	-3.3	1.3	1.0	4.3	-10.7	-10.9
O=C(Nc1ccc2c(c1)OCO2)C1CC(c2c(F)cccc2Cl)=NO1 (centres undefined)	4.3%	/	-1.3	-3.2	1.3	-4.9	-7.0
Nc1nc(-c2ccccc2)nn1C(=O)Cc1ccccc1	3.6%	-4.6	-0.3	-2.0	-2.1	?	5.7
CC1=C/C(=N\NC(=S)NCCc2ccccc2)CC(C)(C)C1	/	0.3	3.7	-6.0	0.6	96.0*	-22.0
Cc1cccc(OCc2occc2C(=O)Nc2cccc(-n3cnnn3)c2)c1	3.9%	-1.4	4.6	0.1	0.8	-5.4	-0.9
Cc1csc(Nc2ccc(C(=O)O)cc2)n1	4.0%	/	-2.9	-1.0	4.0	2.9	-6.8
Cc1cc(C)cc(OCC(=O)Nc2nc(-c3cccnc3)cs2)c1	/	0.6	0.5	0.2	-4.6	-3.3	-9.8
CCOc1ccc(-c2nnc(-c3ccco3)o2)cc1	15.1%	-0.3	3.5	5.3	-0.2	-13.6	-3.6
O=C(NCCc1nnc2ccc(N3CCCCCC3)nn12)c1ccccc1F	-3.1%	/	-0.4	1.2	1.8	5.4	-13.0
CCC(=O)NC(C)C(c1cccs1)N1CCN(c2ccccc2)CC1 (centres undefined)	3.8%	98.9*	5.7	0.0	-1.6	0.9	10.4
CC(C)(C)c1sc(N)nc1-c1ccccc1	/	11.0	-0.3	-1.2	3.1	-9.9	0.5
NC(=O)c1nsc(C(=O)N(Cc2ccc(F)cc2)C(C(=O)NCC2CCCO2)c2ccc(F)cc2)c1N (centres undefined)	1.6%	4.2	1.8	1.4	7.7	?	2.6
CC(c1ccon1)N(C)Cc1cn[nH]c1-c1ccc(-c2ccccc2)cc1 (centres undefined)	6.0%	2.5	0.2	3.7	1.1	19.2	7.0
COc1ccc(/C=C(\C#N)C(=O)OCC(=O)N(C)C2CCS(=O)(=O)C2)cc1 (centres undefined)	4.1%	5.5	0.7	-0.6	1.1	12.9	-6.6
Cc1cc(C(F)(F)F)nn1CC(=O)N1CCCCC1C (centres undefined)	-7.0%	-5.8	0.2	5.8	-1.3	4.5	-2.4
Cc1noc(C)c1S(=O)(=O)NC1CCN(Cc2ccccc2)CC1	31.2%	-0.4	-4.9	0.6	-0.3	0.8	6.6
CCC(=O)Nc1nc2c(OC)ccc(OC)c2s1	-2.8%	/	-1.3	0.9	-1.8	-2.2	15.9
CC(=O)N1CCc2cc(S(=O)(=O)NC(CC(C)C)C(=O)Nc3ccc4c(c3)OCCO4)ccc21 (centres undefined)	6.9%	0.6	-2.8	-4.9	/	/	-1.9
Cc1ccc(NC(=O)c2c3c(nc4ccccc24)CCC3)cc1	17.7%	-5.1	6.6	1.2	-0.3	-11.2	7.0
CCCCN1CC[C@H]2C=CC[C@@H](C(=O)Nc3ccccc3)[C@H]2C1=O	/	/	-0.4	3.6	0.8	16.1	-0.3
CCCn1nnc(NC(=O)c2ccc(Br)o2)n1	10.0%	3.1	0.9	2.0	3.3	2.6	-6.6
COCCCNC(=O)Cn1nnc(-c2ccc(NC(=O)c3cccnc3)cc2)n1	3.5%	-2.2	/	1.6	2.7	4.2	/
CC(=O)Oc1c(S(=O)(=O)c2ccc(C)cc2)c(C)nn1C(C)(C)C	-3.2%	/	-2.7	-6.2	5.5	35.7	7.5
OC[C@H]1O[C@H](OC[C@H]2OC(O)[C@H](O)[C@@H](O)[C@@H]2O)[C@H](O)[C@@H](O)[C@@H]1O (some centres undefined)	/	-7.6	2.3	0.4	/	/	0.4
COc1cc(-c2cc(C(=O)OCC(=O)NC3CC3)c3ccccc3n2)cc(OC)c1OC	-2.8%	-1.9	1.3	-5.0	/	/	15.6

In the list so far, these contain an NH in an aromatic ring.
SMILES	Vif A3G	ALR inh	HNF4A DNA FP	LANA-H2A inh	RanGTP-Imp inh	Calb FLC	Beta2AR agonist
O=C1c2[nH]nc(-c3ccccc3O)c2C(c2cccc(Cl)c2)N1Cc1ccco1 (centres undefined)	2.0%	-3.6	5.7	-4.7	-2.0	-6.5	15.9
O=[N+]([O-])c1cccc(S(=O)(=O)Nc2ccc3cn[nH]c3c2)c1	/	54.7	12.7	4.3	/	/	11.3
CC(c1ccon1)N(C)Cc1cn[nH]c1-c1ccc(-c2ccccc2)cc1 (centres undefined)	6.0%	2.5	0.2	3.7	1.1	19.2	7.0

More compounds.
SMILES	Vif A3G	ALR inh	HNF4A DNA FP	LANA-H2A inh	RanGTP-Imp inh	Calb FLC	Beta2AR agonist
C/C(=N/OCc1ccc(Br)cc1)c1ccccn1	-5.3%	-22.0	-3.2	1.2	-0.1	-3.3	-5.9
CC(C)(C)c1nc(SCC(=O)NCc2ccco2)c2ccccc2n1	15.1%	59.8	-1.0	2.3	2.4	-20.1	-7.1
Cc1ccccc1C(=O)Nc1ccccc1C(=O)N/N=C\c1ccco1	24.7%	14.5	1.9	0.9	-2.0	6.0	-0.2
COc1ccc(OC)c2c1cc(C(=O)N[C@@H](Cc1ccccc1)C(=O)O)n2C	4.0%	16.7	-3.8	1.5	2.1	1.5	-4.7
CC(C)Cc1nc(C#N)c(N2CCC(C(N)=O)CC2)o1	?	/	-2.4	2.3	-0.1	1.6	-1.1
Cc1cccc(N2C(=O)CC(Sc3nccc(C)n3)C2=O)c1 (centres undefined)	/	/	0.4	-5.1	-1.6	-4.8	-5.6
COCCN1C(=O)N(c2cccc(C)c2)C(=O)C1CC(=O)Nc1cc(OC)cc(OC)c1 (centres undefined)	/	-1.8	-1.4	8.7	0.7	17.2	1.0
O=C(Oc1ccc(Cl)cc1)N1CCOCC1	-3.7%	/	2.3	0.9	0.8	-0.7	-0.4
COc1ccc(OC)c(N(C)S(=O)(=O)c2cc3c(cc2C)NC(=O)CO3)c1	/	-18.0	-1.7	-4.6	0.8	9.2	-1.8
CCOC(=O)C1=NNC(C(=O)c2ccccc2)C1c1ccc(C)cc1 (centres undefined)	-3.1%	/	3.4	-0.6	?	5.0	-2.1
